SIAH1 antagonists = Siah-1 peptide-binding antagonists, primary screen, biochemical, fluorescence polarization, rhodamine-plectin, uHTS (AID 1817). 290,000 compounds, 0.02% hits. Siah-1 / rhodamine-plectin peptide fluorescence polarization; higher % means a stronger effect. displacement, % at 20 µM, or IC50 in µM where a hit was titrated;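 active = displacement of at least 50% at 20 µM, with a fluorescence ratio check between 0.3 and a set limit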;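 also: plate controls were Siah plus tracer with DMSO for no effect and tracer alone without Siah for full effect; strong numbers were not always called active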
P. falciparum M1AAP = malaria alanyl aminopeptidase activity blockers – biochemical, fluorogenic H-Leu-NHMec substrate, 1536-well (AID 1445); 220,000 compounds, 0.42% hits; inhibition, % at 30 µM, or IC50 in µM where a hit was titrated; recombinant M1AAP, H-Leu-NHMec fluorogenic kinetic assay; higher % means a stronger effect;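 active = primary inhibition above the hit cutoff, then over 50% inhibition at one or more dose response concentrations, cut at about 23% in these data, passing the limit was not always enough; inconclusive = conflicting primary data, or primary hits not chosen for dose response; inactive = low primary inhibition, or under 50% at every dose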;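 also: plate controls were DMSO full reaction for no effect and no enzyme background for full effect; strong numbers were not always called active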
M17LAP inhibition = P. falciparum M17LAP inhibitors, primary screen, biochemical, fluorogenic H-Leu-NHMec substrate, 1536-well (AID 1619). one-dose inhibition, % at 30 µM; IC50 in µM for titrated hits. 220,000 compounds, 0.38% hits. recombinant M17LAP, H-Leu-NHMec fluorogenic kinetic assay; higher % means a stronger effect;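 active = compound inhibiting the enzyme by more than half at any dose during confirmatory dose-response retesting; inconclusive = strong single-dose inhibitors picked by rank but not retested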;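 also: plate controls were full reaction with DMSO carrier for no effect and no enzyme background for full effect; strong numbers were not always called active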
Dynein cargo inh = blocks dynein driven cargo transport along microtubules; 3617.4 mouse cells, GR-EGFP nuclear translocation imaging; test concentration mostly 20 µM; stimulated with dexamethasone, 1 µM; hits give low values; z-score, hits read low; 220,000 compounds, 0.47% hits;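 active = plate z-score of nuclear minus cytoplasmic receptor signal below a set negative limit, without overly bright fluorescence or cell loss, cut at about -3.5 in these data, passing the limit was not always enough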;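 also: z-score of nuclear minus cytoplasmic ring GR-EGFP intensity difference per well; some compounds called inactive have numbers as strong as hits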
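Buffer or medium – tet-free medium with charcoal-stripped serum · Signal – automated 10x imaging of fixed Hoechst-stained cells · Also added – dexamethasone agonist, 1.0 µM final, for 30 min · Incubation – induction 48 h, compound 1 h, agonist 30 min · Read-out – GR-EGFP nuclear translocation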
AID2073 = inhibitors of Mint1-CaV2.2 protein interaction, biochemical, HTRF (AID 2073). HTRF protein-protein interaction, Mint1-CaV2.2; higher % means a stronger effect. inhibition, % at 20 µM, or IC50 in µM where a hit was titrated. 290,000 compounds, 0.19% hits; in the data active = inhibition mostly above about 51%, no sharp cut-off; inconclusive = no clear call, values can overlap the other calls; inactive = mostly below about 53%; also: some results filed as inactive read as strong as hits
LYP inhibition = inhibitors of LYP phosphatase, biochemical, fluorescence intensity, uHTS (AID 1779). 290,000 compounds, 0.054% hits. recombinant LYP phosphatase, fluorescence intensity; higher % means a stronger effect. inhibition, % at 11.5 µM, or IC50 in µM where a hit was titrated; in the data active = inhibition above about 50%;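 also: plate controls were vehicle with enzyme for no effect and no enzyme for full effect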
XIAP displacement = XIAP antagonists, biochemical, IAP family, fluorescence polarization (AID 1018); XIAP BIR domain, fluorescence polarization peptide displacement; higher % means a stronger effect; displacement, % at 20 µM, or IC50 in µM where a hit was titrated; 200,000 compounds, 0.007% hits; in the data active = displacement above about 50%; also: a part of the inactive calls stands beside numbers as strong as those of hits
Dynein cargo inh cytoplasmic EGFP = also measured in Dynein cargo inh; calls as there; z-score; measured here: cytoplasmic GR-EGFP intensity; hits give high values
Dynein cargo inh nuclear GR-EGFP = second read-out of Dynein cargo inh, no call of its own (marks repeat the call); z-score; measured here: nuclear GR-EGFP intensity;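 lower value marks the stronger effect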
Dynein cargo inh cell count = recorded beside Dynein cargo inh, whose call it bears; z-score; measured here: cell count per field
Starred values were filed as active, the others as inactive; i = inactive; u = inconclusive. This is a subset, so the mix of outcomes need not match the whole.

The opening two entries, to show the layout:
SMILES	SIAH1 antagonists	P. falciparum M1AAP	M17LAP inhibition	Dynein cargo inh	Dynein cargo inh cytoplasmic EGFP	Dynein cargo inh nuclear GR-EGFP	Dynein cargo inh cell count	AID2073	LYP inhibition	XIAP displacement
CC(=O)NCCn1c(SCc2ccc(C)cc2)nc2ccccc2c1=O	4.0%	3.9%	-7.8%	-0.506	-0.19	-0.338	0.252	12.4%	-4.6%	-4.5%
O=C(O/N=C\c1ccc(N2CCCCC2)c([N+](=O)[O-])c1)c1cccc(Cl)c1	3.2%	1.6%	6.9%	0.405	0.0345	0.987	0.202	23.9%	1.7%	-0.5%

Results, repeating the preview:
SMILES	SIAH1 antagonists	P. falciparum M1AAP	M17LAP inhibition	Dynein cargo inh	Dynein cargo inh cytoplasmic EGFP	Dynein cargo inh nuclear GR-EGFP	Dynein cargo inh cell count	AID2073	LYP inhibition	XIAP displacement
CC(=O)NCCn1c(SCc2ccc(C)cc2)nc2ccccc2c1=O	4.0%	3.9%	-7.8%	-0.506	-0.19	-0.338	0.252	12.4%	-4.6%	-4.5%
O=C(O/N=C\c1ccc(N2CCCCC2)c([N+](=O)[O-])c1)c1cccc(Cl)c1	3.2%	1.6%	6.9%	0.405	0.0345	0.987	0.202	23.9%	1.7%	-0.5%
COc1ccccc1-c1nnc2n1N=C(c1ccc(O)c(O)c1)CS2	-4.8%	22.3%	39.2µM*	-0.618	-0.174	-0.00801	-0.0304	8.5%	-3.2%	-4.6%
CCC(C)(C)NC(=O)C(c1ccc(C)o1)N(Cc1cccs1)C(=O)Cn1nnc2ccccc21 (stereo unspecified)	-4.1%	-1.2%	4.3%	-0.0584	-0.225	0.428	0.255	-4.9%	-7.2%	-8.9%
CCOc1c2ccc(C(=O)NCc3cc(C(F)(F)F)cc(C(F)(F)F)c3)cc2nn1CCOC	-3.5%	5.7%	-21.1%	0.477	-0.197	0.617	-0.061	0.4%	-8.9%	-4.9%
CCn1c(-c2cccnc2)n[nH]c1=S	-2.9%	6.5%	9.3%	-0.297	-0.349	-0.0169	-0.324	-14.6%	-8.9%	-2.8%
CCN1C(=O)CC(NNC(=O)c2ccc(Cl)cc2)C1=O (stereo unspecified)	4.7%	7.1%	-0.1%	-0.651	-0.0358	-0.929	-0.708	2.4%	-5.2%	-3.5%
O=C(Nc1ccsc1C(=O)NC1CCCCC1)c1ccc(F)cc1	1.7%	-4.2%	4.5%	0.0176	-0.217	-0.275	-0.216	4.9%	5.3%	-5.5%
FC(F)(F)c1nc(-c2cccnc2)ncc1-c1nnnn1-c1ccccc1	-4.8%	3.3%	0.1%	-0.361	-0.154	0.443	0.152	9.3%	1.2%	-15.3%
CCN(C(=O)Cc1ccccc1OC)c1nnc(-c2ccncc2)s1	6.0%	0.9%	11.3%	-0.286	-0.189	-0.39	0.239	-10.7%	-0.8%	1.7%
CCOC(=O)N1CCN(C(=O)c2ccc3c(=O)n(-c4ccc(F)cc4)c(=S)[nH]c3c2)CC1	3.8%	0.2%	-2.2%	-0.715	-0.263	-0.229	1.28	-13.4%	-4.5%	-10.9%
Cc1ccc(CNc2ccc(O)cc2)cc1	i	11.5%	-2.7%	-0.885	0.0602	-1.58	0.423	-7.1%	-3.4%	-1.4%
Cc1cc(NC(=O)c2cccc(F)c2)no1	4.4%	-2.4%	-5.7%	-0.142	-0.206	-0.918	0.522	-8.9%	-10.2%	-4.8%
COc1ccccc1NC(=O)CN1CCN(CC(=O)Nc2ccc(Cl)c(C(F)(F)F)c2)CC1	0.9%	9.5%	14.2%	-2.08	-0.0771	-0.625	0.558	28.2%	5.1%	-2.1%
COc1ccc(NC(=O)c2cn(-c3ccccc3)nc2-c2cc3ccccc3o2)cc1	0.2%	4.9%	4.4%	3.33	0.406	1.36	-2.34	4.2%	0.2%	-3.6%
CCCn1nc2cc(C(=O)NCc3ccc(OC)cc3)ccc2c1OCC	-1.7%	2.0%	-50.0%	1.3	-0.188	0.962	-1.06	17.4%	-3.3%	-0.4%
CC(C)(C)c1ccc(C(=O)N2CCC(C(=O)NCCC3=CCCCC3)CC2)cc1	1.1%	-4.4%	1.3%	1.43	-0.224	1.49	-0.136	-6.0%	-1.2%	1.7%
CC(=O)Nc1c(NCC(C)C)c2ccccc2oc1=O	1.7%	1.0%	10.9%	-0.362	-0.137	-0.479	-0.0373	-0.8%	-1.8%	-4.0%
CN1C2C=C3C(C#N)=C(N)C(C#N)(C#N)[C@H](c4c(F)cccc4F)[C@H]3C1CC2 (stereo partly specified)	2.6%	11.6%	-15.3%	-1.27	0.0305	-0.429	0.0491	3.3%	-1.8%	-2.0%
CCOC(=O)/C(=C\c1ccc([N+](=O)[O-])o1)NC(=O)c1ccccc1	7.2%	6.3%	-88.3%	2.96	0.0611	1.99	-1.95	6.0%	-7.2%	-1.4%
Cc1ccc2nc(NC(=S)NC(=O)c3cccs3)sc2c1	-1.2%	2.0%	12.6%	0.482	-0.0945	0.482	-0.299	-7.9%	0.9%	-0.2%
COC(=O)c1ccc(C(=O)OC)c(NC(=O)CSCc2ccc(Br)cc2)c1	2.6%	-3.6%	-4.4%	0.0639	-0.134	0.35	0.727	-0.8%	0.8%	-7.1%
COC(=O)c1ccc(COc2ccc(/C=C(\C#N)c3nc4ccccc4[nH]3)cc2OC)o1	0.9%	12.6%	-3.2%	-0.00489	-0.0786	-0.235	0.231	21.1%	-4.0%	-17.0%
COc1cccc(C(=O)N/N=C/c2cn[nH]c2-c2ccc(OC)cc2OC)c1	-1.9%	2.8%	6.9%	-0.176	-0.198	-0.678	-0.736	21.3%	4.1%	-1.7%
O=C(O)/C=C1\NC(=O)c2ccccc21	2.6%	1.4%	-1.9%	2.99	-0.107	1.42	-0.473	13.3%	-3.7%	-2.3%
COc1ccc2nc(Sc3c([N+](=O)[O-])nc(C)n3Cc3ccccc3)[nH]c2c1	7.1%	8.3%	5.0%	-2.39	0.0495	-0.615	0.277	-31.6%	-4.5%	-3.1%
CN(CC(=O)NCc1ccc(F)cc1)S(=O)(=O)c1cccc2nsnc12	2.1%	7.4%	-4.8%	0.532	-0.239	0.569	0.211	5.0%	-2.3%	-1.2%
CC(C)CNc1cc(N2CCCC2)ccc1[N+](=O)[O-]	-4.5%	1.5%	-7.1%	1.13	-0.214	0.032	0.264	-4.0%	-4.1%	-6.0%
CN(C)S(=O)(=O)Oc1ccsc1C(=O)Nc1ccc(Cl)c(Cl)c1	-0.2%	-5.5%	-1.1%	1.56	-0.232	0.226	-0.787	-4.1%	-0.8%	-7.8%
CCn1nc(C)c(NC(=O)CCSc2nc(-c3ccco3)cc(C(F)(F)F)n2)c1C	1.6%	6.8%	5.0%	-0.124	0.0962	0.305	0.944	-10.4%	-6.3%	-4.3%
CCOc1ccc2nc(C)cc(C(=O)O)c2c1	0.5%	1.3%	-73.4%	1.64	0.312	1.85	-3.23	8.6%	-9.2%	-5.2%
COc1ccc(CNC(=O)C2CCN(C(=O)N3CCOc4ccc(C)cc43)CC2)cc1	-2.6%	20.2%	-0.9%	1.91	-0.226	0.961	-1.12	-6.0%	-12.1%	-6.2%
Nc1nc(-c2ccco2)nn1C(=O)c1ccc(Cl)cc1	-1.4%	6.8%	-6.4%	0.306	-0.175	-0.471	-0.579	-9.5%	-3.8%	-3.6%
CCCC(=O)NC(Nc1cccc(C(F)(F)F)c1)C(Cl)(Cl)Cl (stereo unspecified)	-1.5%	-0.8%	-0.2%	-0.19	-0.132	-0.612	0.76	u	3.7%	-0.8%
CCOC(=O)CN1NC2(CCC(C(C)(C)C)CC2)NC1=S (stereo unspecified)	-2.2%	1.0%	24.5%	0.888	-0.114	0.897	-0.734	-21.1%	-8.9%	-4.8%
Cc1ccc(NS(=O)(=O)c2cc(C(=O)NCc3ccccn3)ccc2Cl)cc1C	0.5%	4.3%	3.8%	-0.315	-0.224	0.232	0.852	13.6%	-3.3%	-1.8%
Cc1ccc(C)c(N(CC(=O)Nc2cc(Cl)ccc2Oc2ccccc2)S(C)(=O)=O)c1	1.7%	-2.0%	3.7%	-1.71	-0.171	-0.896	-0.736	0.5%	2.4%	2.1%
FC(F)(F)c1cccc(Oc2nc(-c3ccccc3)nnc2C(F)(F)F)c1	-0.2%	2.2%	4.3%	-0.547	0.0389	-0.312	-0.89	-0.5%	0.4%	-5.8%
CCOc1ccc(C(=O)N2CCCC2C(=O)O)cc1 (stereo unspecified)	-0.9%	3.8%	-3.4%	0.132	-0.216	0.0101	0.54	-2.9%	-12.0%	-3.0%
O=C(Nc1ccc(-c2cn3ccccc3n2)cc1)c1ccc(Cl)cc1	-0.3%	-0.9%	1.8%	-0.271	-0.204	0.269	0.352	21.0%	-15.3%	-6.3%
O=C(CSc1ccc(Cl)cc1)N1CCN(c2ccc(Cl)cc2[N+](=O)[O-])CC1	3.0%	6.5%	6.7%	0.467	-0.103	0.793	-0.0235	-3.9%	-1.6%	-3.4%
N#CC1=C(N)SC(N)=C(C#N)C1c1cccc(O)c1	-4.6%	13.7%	4.5%	-0.212	-0.148	-0.934	0.393	-9.7%	0.9%	-3.2%
O=C(Nc1cccc(C(=O)N2CCOCC2)c1)c1ccccc1	2.3%	5.5%	-5.9%	-0.915	-0.0799	-0.23	-0.45	2.2%	-5.8%	-1.9%
O=C(Nc1ccc(-c2nc3ccccc3o2)cc1)c1cccnc1	0.9%	6.6%	-0.6%	0.486	-0.11	-0.368	-1.02	-0.9%	-2.2%	-3.8%
CCCNC(=O)N1CCC(C(=O)c2cccc(F)c2)CC1	-3.3%	6.8%	-6.6%	-0.258	-0.123	0.175	0.815	-0.7%	0.9%	-3.5%
Cn1ccnc1Sc1ccc(/C=N/NC(=O)c2ccccc2[N+](=O)[O-])cc1[N+](=O)[O-]	-0.2%	11.6%	15.7%	1.17	-0.228	-0.37	-0.411	5.0%	1.4%	-2.3%
Cc1sc(NC(=O)C2CCCCC2C(=O)O)c(C(N)=O)c1-c1ccc(C(C)(C)C)cc1 (stereo unspecified)	0.2%	4.2%	11.1µM*	0.153	-0.04	-0.0342	-0.236	-17.5%	15.7%	-5.8%
CCOC(=O)C1=C(C)N(CC(C)C)C(=O)/C1=C\c1ccc(OCC(=O)Nc2ccccc2)cc1	-2.7%	6.8%	-9.3%	-3.05	-0.00328	-0.97	0.727	1.6%	5.7%	-1.8%
O=C(CN(c1ccccc1)S(=O)(=O)c1ccccc1)NCCSCc1ccco1	7.2%	22.0%	5.4%	0.298	-0.191	-0.214	-0.249	52.2%	1.9%	-23.0%
CC(C)(C)NC(=O)C1Cc2ccccc2CN1C(=O)Nc1ccccc1Cl (stereo unspecified)	3.1%	4.3%	20.5%	-0.578	-0.204	-0.396	-0.374	11.1%	-7.4%	-1.1%

From PubChem
